VDR inhibitor: vitamin D3 receptor (human) inhibition. VDR-SRC2-3 peptide fluorescence polarization, 2 h. Potency, µM, inactives show max response, negative = inhibition, usual class: inhibitors. actives 0.93% (n = 400,000). AID 504847; active = well fitted inhibition curve with a large enough effect; inconclusive = small, poorly fitted or top-dose-only effect, or another doubt; inactive = no such curve, though single readings can be large or run the other way; note: series mostly up to about 120 µM
Target sequence (P11473 whole entry, looked up): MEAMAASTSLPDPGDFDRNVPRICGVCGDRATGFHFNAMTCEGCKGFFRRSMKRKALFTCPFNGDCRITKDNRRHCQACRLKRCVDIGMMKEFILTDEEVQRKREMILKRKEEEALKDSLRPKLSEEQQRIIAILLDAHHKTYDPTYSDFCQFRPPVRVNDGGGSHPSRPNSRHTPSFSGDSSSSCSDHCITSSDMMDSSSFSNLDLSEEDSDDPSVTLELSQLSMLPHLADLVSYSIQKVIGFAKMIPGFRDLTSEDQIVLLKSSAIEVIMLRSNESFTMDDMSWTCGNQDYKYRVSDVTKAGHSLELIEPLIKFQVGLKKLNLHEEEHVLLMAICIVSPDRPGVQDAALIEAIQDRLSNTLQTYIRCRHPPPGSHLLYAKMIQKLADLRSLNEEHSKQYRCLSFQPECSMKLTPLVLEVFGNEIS
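Signal is fluorescence polarization, reporting how far test compounds block the interaction of VDR with the SRC2-3 coregulator peptide after a 2 h room-temperature incubation.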
An asterisk follows results filed as active; ? = inconclusive; & = joins results of further samples; [ ] = another dose, or the depositor's remark. % is set by controls: 0 for no effect and ±100 for the full control effect; potency is the fitted concentration of half-maximal effect. These rows are one share of the data (hit frequency here may not be typical).

SMILES	VDR inhibitor
Cc1ccccc1-n1ncc2c([N+](=O)[O-])cc([N+](=O)[O-])cc21	-1%
COc1ccc(-c2csc(N)n2)cc1F	-11%
CCCCn1c(N)c(N(CCOC)C(=O)CN2C(=O)C3CCCCC3C2=O)c(=O)[nH]c1=O (stereo unspecified)	11%
Cc1c(C(=O)NCCCN2CCOCC2)sc2ncnc(N3CCN(c4ccccc4)CC3)c12	-10%
CC(=O)N1c2ccccc2C(=O)OC1c1cccnc1 (stereo unspecified)	2%
CCCCc1ccc(CC(=O)Nc2cc(S(=O)(=O)N3CCOCC3)ccc2O)cc1	?
Cc1ccc(CCNC(=O)Cn2ncc3c([nH]c4ccccc43)c2=O)cc1	-13%&-3%
O=C(CCc1c[nH]c2ccccc12)N1CCCC1	-3%
Cc1nn(Cc2noc(C(=O)NCc3ccc4c(c3)OCO4)n2)c(C)c1Br	-1%
COc1cc(NC(=O)c2cc(OC)c(OC)c(OC)c2)cc(-n2cnnn2)c1	?
COC(CN(C)C(C(=O)NC1CCCCC1)c1ccccc1)OC (stereo unspecified)	0%
O=C(Nc1ccncc1)c1cn(-c2ccccc2)nc1-c1cccs1	1%
CCNc1ncc2nc(-c3cc(F)cc(F)c3)c(=O)n(CCc3ccccc3)c2n1	?
CCOC(=O)c1cc(S(=O)(=O)N2CCC(C)CC2)cn1C	2%
COc1ccccc1C(=O)NCC(=O)NC(C)c1ccc(-n2ccnc2)cc1 (stereo unspecified)	-1%
CCCn1c(-c2ccc(C(=O)OC)cc2)nc2c1c(=O)[nH]c(=O)n2Cc1ccccc1	-10%
N#Cc1ccc(NC(=O)c2cc(=O)c3ccccc3o2)cc1	-2%
CCOc1ccc(NC(=S)Nc2ccc(OCc3ccccc3)cc2)cc1	-12%
CC1(C)N=C(N)NC(Nc2cccc(Br)c2)=N1	11%
CCN(C(=O)C(NS(=O)(=O)c1ccc(Br)s1)c1ccccc1)c1ccc(C)c(C)c1 (stereo unspecified)	-12%
CC(=O)OCCNC(=O)c1cccnc1	-3%&-7%
CC(=O)C1=C(O)C(=O)N(c2cc(C(C)(C)C)on2)C1c1ccc(Br)cc1 (stereo unspecified)	?
CCC(=O)c1ccc(OC(=O)c2cnccn2)cc1	-7%
CCCCc1ccc(NC(=S)NCCO)cc1	9%
CCCc1cc(=O)[nH]c(SCC(=O)c2cc(C)n(-c3cc(C)on3)c2C)n1	-4%
COc1cc(N2C(=O)CSC2=S)cc(OC)c1OC	-9%
CCOc1ccc(CNC(=O)CCCn2nc(CC)n3c(cc4occc43)c2=O)cc1	-8%
Cc1c(C(=O)Oc2ccc(Br)cc2)sc2ncn(Cc3ccccc3F)c(=O)c12	-3%
Cc1occc1C(=O)N/N=C/c1cnn(C)c1C	1%
O=C(NNC(=O)c1ccc(F)cc1)C(=O)N1CCCCC1	-3%
CC(=O)Nc1ccc(NC(=O)N2CCCCC2)cc1	8%
CCCCOC(=O)c1ccc(NC(=O)C2CCCO2)cc1 (stereo unspecified)	-9%
COc1ccc(OC)c(N(CC(=O)Nc2cccc(C(F)(F)F)c2)S(C)(=O)=O)c1	2%
O=C(NCCc1ccccc1)c1cnc2n(c1=O)CCS2	-16%
CCC1(c2ccccc2)NC(=S)N(c2ccc(C)c(C)c2)N1 (stereo unspecified)	-27%
COc1ccc(-c2nc(C(=O)Nc3cccc(C(C)=O)c3)nn2-c2ccccc2Cl)cc1	-3%
CCOc1ccccc1NC(=S)NNS(=O)(=O)c1c(C)cc(C)cc1C	-8%
COc1ccc(NC(=O)CCCSc2nc(-c3ccco3)cc(C(F)(F)F)n2)c(OC)c1	3%
Cc1cc(Br)ccc1NC(=O)CN(C)C(=O)C1CSC2(C)CCC(=O)N12 (stereo unspecified)	12%
O=C(CN1C(=O)C2CC=CCC2C1=O)Nc1nc2ccc(F)cc2s1 (stereo unspecified)	0%
O=C1CCC(=O)N1OCCCOc1ccc(Br)cc1Cl	-9%
COc1c(/C=N/NC(=O)[C@H]2C[C@@H]2c2ccccc2)c(CCN(C)C(C)=O)cc2c1OCO2	21%
Cc1ccc(C2c3[nH]c4ccccc4c3C[C@H]3C(=O)N(c4ccccc4C(=O)NCCN4CCOCC4)C(=O)N23)cc1 (stereo partly specified)	-9%
CC1(C)c2[nH]c3ccccc3c2C[C@H]2C(=O)N(Cc3ccccc3F)C(=O)N21	-11%
CCc1ccc(CN(C)C(=O)c2cc(=O)c3ccccc3o2)cc1	-21%
Cc1cc(NC(=O)CSc2nc(=O)cc(N)n2-c2ccc(Cl)cc2)no1	7%
O=C(CSc1nnc(-c2n[nH]c3ccccc23)n1-c1ccccc1)Nc1ccccc1Cl	17%
CCN(CC)c1ccc(/C=C2\CCC(/C=C(\C#N)C(=O)Nc3ccccc3F)=C2N2CCOCC2)cc1	87%[activator]
Cc1cccc(-n2c(CNC(=O)c3ccccc3)nnc2SCC(=O)Nc2nccs2)c1	-1%
C[C@H](NC(=O)OCc1ccccc1)C(=O)N[C@@H](Cc1c[nH]c2ccccc12)C(=O)O	1%
COC(=O)c1[nH]c2cc(OC)c(OC)cc2c1NC(=O)CN1C[C@H]2C[C@@H](C1)c1cccc(=O)n1C2	2%
COc1ccccc1-c1nc(S(=O)(=O)c2ccccc2)c(N2CCCCC2)o1	?
COc1ccc2nc(SCCN(C)C)[nH]c2c1	-11%
CCOC(=O)C1=C(C)N=c2s/c(=C\C(=O)OC)c(=O)n2C1c1ccc(OC)cc1 (stereo unspecified)	-10%
Cc1cc(C(=O)Nc2ccccc2N2CCCCC2)no1	-3%
CCOc1ccc2nc(SCC(=O)NCc3ccc4c(c3)OCO4)[nH]c2c1	-5%
CCc1cc2c(SCC(=O)O)ncnc2s1	13%
CCN(CC)CCNC(=O)c1ccc2c(c1)NC(=O)C(CS(=O)(=O)Cc1ccc(F)cc1Cl)N2 (stereo unspecified)	12%
COc1ccc(CN(C)C(=O)c2cccc(Oc3ccccc3)c2)c(OC)c1OC	5%
CN(C(=O)COC(=O)c1ccc2c(c1)OCO2)c1c(N)n(Cc2ccccc2)c(=O)[nH]c1=O	5%

Shown with bars between the fields: entries from further up
Compound | VDR inhibitor
COc1c(/C=N/NC(=O)[C@H]2C[C@@H]2c2ccccc2)c(CCN(C)C(C)=O)cc2c1OCO2 | 21%
Cc1ccc(C2c3[nH]c4ccccc4c3C[C@H]3C(=O)N(c4ccccc4C(=O)NCCN4CCOCC4)C(=O)N23)cc1 (stereo partly specified) | -9%
CC1(C)c2[nH]c3ccccc3c2C[C@H]2C(=O)N(Cc3ccccc3F)C(=O)N21 | -11%
CCc1ccc(CN(C)C(=O)c2cc(=O)c3ccccc3o2)cc1 | -21%
Cc1cc(NC(=O)CSc2nc(=O)cc(N)n2-c2ccc(Cl)cc2)no1 | 7%
O=C(CSc1nnc(-c2n[nH]c3ccccc23)n1-c1ccccc1)Nc1ccccc1Cl | 17%
CCN(CC)c1ccc(/C=C2\CCC(/C=C(\C#N)C(=O)Nc3ccccc3F)=C2N2CCOCC2)cc1 | 87%[activator]
Cc1cccc(-n2c(CNC(=O)c3ccccc3)nnc2SCC(=O)Nc2nccs2)c1 | -1%
C[C@H](NC(=O)OCc1ccccc1)C(=O)N[C@@H](Cc1c[nH]c2ccccc12)C(=O)O | 1%
COC(=O)c1[nH]c2cc(OC)c(OC)cc2c1NC(=O)CN1C[C@H]2C[C@@H](C1)c1cccc(=O)n1C2 | 2%
COc1ccccc1-c1nc(S(=O)(=O)c2ccccc2)c(N2CCCCC2)o1 | ?
COc1ccc2nc(SCCN(C)C)[nH]c2c1 | -11%
CCOC(=O)C1=C(C)N=c2s/c(=C\C(=O)OC)c(=O)n2C1c1ccc(OC)cc1 (stereo unspecified) | -10%
Cc1cc(C(=O)Nc2ccccc2N2CCCCC2)no1 | -3%
CCOc1ccc2nc(SCC(=O)NCc3ccc4c(c3)OCO4)[nH]c2c1 | -5%
CCc1cc2c(SCC(=O)O)ncnc2s1 | 13%
CCN(CC)CCNC(=O)c1ccc2c(c1)NC(=O)C(CS(=O)(=O)Cc1ccc(F)cc1Cl)N2 (stereo unspecified) | 12%
COc1ccc(CN(C)C(=O)c2cccc(Oc3ccccc3)c2)c(OC)c1OC | 5%
CN(C(=O)COC(=O)c1ccc2c(c1)OCO2)c1c(N)n(Cc2ccccc2)c(=O)[nH]c1=O | 5%

(next part)
SMILES	VDR inhibitor
COCCOCCn1cnc2ccccc21	-5%
Cc1ccc(NC(=O)C(C)OC(=O)CCN=C2NS(=O)(=O)c3ccccc32)cc1 (stereo unspecified)	-17%
COc1ccc(Nc2ccc([N+](=O)[O-])cn2)cc1	0%
COC(=O)CCCNC(=O)c1ccc2nc(Cc3ccc(OC)cc3)oc2c1	-20%
COc1ccccc1CNC(=O)c1ccc2c(c1)N(Cc1cccc(C)c1)C(=O)c1ccccc1S2(=O)=O	1%
O=C(CNc1ccc(F)cc1)N/N=C/c1c(O)ccc2ccccc12	2%
Cc1ccc(-c2noc(CCC(=O)NCC3CCCO3)n2)cc1 (stereo unspecified)	4%
O=C(CSc1nnc(C2CC2)n1Cc1ccco1)NCC(F)(F)F	-17%
C/C(=N\NC(=O)C(O)(c1ccccc1)c1ccccc1)c1ccc(NC(=O)CCCC(=O)O)cc1	-8%
COc1ccccc1OCc1ccc(C(=O)N2CCOCC2)o1	1%
CCOC(=O)c1ccc(N/C=C2\CCCCC2=O)cc1	11%
Nc1ccc(Nc2ccccc2)c(S(=O)(=O)O)c1	9%
O=C(c1cccc(C(F)(F)F)c1)N1CCC(O)(CS(=O)(=O)Cc2ccccc2)CC1	-3%
Cc1c(-c2cccc(NC(=O)Nc3ccc(Cl)cc3)c2)nc2ncccn12	15%
Cc1cc(C)n(CCc2nc(-c3ccco3)cs2)n1	?
CC(C)(C)C(CCl)C(=O)NN=C(c1ccccc1)c1ccccc1 (stereo unspecified)	?
CN(C)c1ccc(-c2cc(N(C)Cc3ccco3)ncn2)cc1	?
O=C(NCc1ccc(Cl)cc1)c1ccc(OCC2CCCO2)cc1 (stereo unspecified)	-9%
O=C(Nc1ccc(-c2nc3cc(Cl)ccc3o2)cc1)C1CCCO1 (stereo unspecified)	-9%
O=C(Cn1cccc1)Nc1ccc(OC(F)(F)F)cc1	4%
COc1cc(Cl)c(C)cc1NC(=O)CCCN1C(=O)C(c2ccccc2)Oc2cccnc21 (stereo unspecified)	-1%
COc1cccc(Nc2nc(C)nc3c2oc2ccccc23)c1	19%
Oc1ccc(/C=N/N(Cc2ccccc2)c2ccccc2)cc1	6%
C[C@@H]1CC2OC(=O)[C@@]3(C)C(=O)CC[C@@](C)(C23)[C@@]1(O)CCc1ccoc1 (stereo partly specified)	16%
Cn1c(=O)c2c(nc(NCCNC(=O)c3ccco3)n2Cc2ccc(Cl)cc2Cl)n(C)c1=O	2%
CCN1C(=O)[C@H]2[C@@H](c3ccc(C)cc3)N3C(=O)N(c4cccc(F)c4)C(=O)[C@@]3(CC)[C@H]2C1=O	-30%
CCCCc1nnc(SCCSc2nnc(CCCC)n2N)n1N	2%
CCOc1ccc(NS(=O)(=O)c2cc3c4c(c2)CCN4C(=O)CC3)cc1	-6%
O=C(Nc1nnc(CCc2ccccc2)s1)C1CCN(C(=O)c2ccco2)CC1	-13%
Cc1cccc(Nc2cc(=O)[nH]c(=O)[nH]2)c1	-4%
O=C(COC(=O)C1CC2CCCC(C1)C2=O)NC1CCCCC1 (stereo unspecified)	8%
CCOc1ccc2c(c1)c(N=NC(N)=S)c(O)n2C	-8%
Cc1nc2nc(-c3ccco3)[nH]n2c(=O)c1Cc1ccccc1	7%
Cc1ccc(S(=O)(=O)NC(C)C(=O)N2CCOCCOCCOCCOCC2)cc1 (stereo unspecified)	-4%
COc1ccc(-c2c(O)c(C#N)c(-c3ccccc3)n(-c3ccc(OC)cc3)c2=O)cc1	-27%
O=C(CSc1nnc(Cc2ccccc2)n1-c1ccccc1)NNC(=O)Cc1ccccc1	15%
COc1ccc(F)cc1S(=O)(=O)N1CC(C)CC(C)C1 (stereo unspecified)	16%
O=C1C2=C(Nc3ccccc3SC2c2ccccc2C(F)(F)F)c2ccccc21 (stereo unspecified)	-1%
COc1cc(NC(=O)C2CCCN(S(=O)(=O)c3ccc4c(c3)oc(=O)n4C)C2)c(C(=O)O)cc1OC (stereo unspecified)	-22%
CC(OC(=O)CN1C(=O)NC(C)(C)C1=O)C(=O)c1ccccc1 (stereo unspecified)	13%
CCOC(=O)C1CCN(c2c(NCc3ccc(C(=O)Nc4ccc(C)cc4)cc3)c(=O)c2=O)CC1	-6%
COc1ccccc1NC(=O)c1c(NC(=O)c2cccs2)sc2c1CCC(C(C)(C)C)C2 (stereo unspecified)	7%
O=S(=O)(CCSc1nc2ccccc2o1)c1nc2ccccc2s1	-25%
Cc1cccc(C)c1NC(=O)C(C)Sc1nnc(C)n1CC1CCCO1 (stereo unspecified)	16%
COc1ccccc1-c1nc(C#N)c(N2CCC(C(N)=O)CC2)o1	-11%
COc1cc(-c2noc(-c3ccc(NCc4cccnc4)c([N+](=O)[O-])c3)n2)cc(OC)c1OC	7%
Cc1nn(C)cc1C(C)NCc1c(C(=O)N2CCCCCCC2)nc2ccc(Cl)cn12 (stereo unspecified)	0%
CCOc1ccc(-c2nc(C#N)c(NCC3CCCO3)o2)cc1 (stereo unspecified)	17%
CCNc1nc(NC(C)C)nc(N(C)C#N)n1	8%
O=C(NNC(=O)C(O)(c1ccccc1)c1ccccc1)C1CC1	-8%
Cc1ccc(C(=O)O)cc1S(=O)(=O)N1CCC(C(=O)O)CC1	-1%
CC1(C2CC2)NC(=O)N(CC(=O)Nc2ccc(SC(F)F)cc2)C1=O (stereo unspecified)	-11%
COC(=O)c1ccccc1NC(=O)C1CC(=O)N(c2ccc(F)cc2)C1 (stereo unspecified)	-8%
COCCN(C(=O)CSCC(=O)Nc1ccc(C)cc1)c1c(N)n(CC(C)C)c(=O)[nH]c1=O	-3%

Screening results as filed in PubChem.
